High-throughput results (PubChem)
TRPML1 agonist = human mucolipin-1 channel agonism; TRPML1-expressing cells, Ca2+ dye fluorescence, FDSS; host cell line not named in the record; reference of the full effect not given here; activation, % (concentration not given with the values); hit rate 0.12% among 410,000; in the data active = activation above about 50%; inconclusive = about 30% to 50%; inactive = below about 30%; also: 0% is about no effect; the text of the record puts the active cut at 80%
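Cells: TRPML1-DL, 1X Tet inducer, ~16 h at 37 degrees C/5% CO2. Dye: ABD Ca8 no-wash + quencher, 45-90 min RT. Read: 10 s baseline, compound add, 110 s agonist phase; 54-4 EC80 (4uM final), 110 s antagonist phase.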
D2 ag = activates the human D2 dopamine receptor | DiscoveRx PathHunter D2 beta-arrestin, luminescence, 90 min; 100% = 57 uM dopamine signal | activation, % (concentration not given with the values) | P14416 | hit rate 0.084% among 360,000; in the data active = activation above about 40%; inconclusive = about 15% to 40%; inactive = below about 15%; also: compound concentration not given in the record; the text of the record calls up to 30% inactive
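Agonist mode: compounds alone added to overnight-plated D2 PathHunter cells for 90 min at 37 C, with 57 uM final dopamine (EC100) defining full response. Beta-arrestin recruitment detected by chemiluminescent reagent, read after 1 h at ambient temperature.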
TRPML1 inh = human mucolipin-1 channel inhibition. TRPML1-inducible cells, Ca2+ dye fluorescence, FDSS; stronger effect = lower value; inhibition of EC80 agonist-evoked calcium signal. activity change, negative = inhibition, % (test concentration not listed). hit rate 0.02% among 390,000. AID 624415; in the data active means activity change below about -50%; inconclusive means about -30% to -50%; inactive means above about -30%;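 also: stimulus is agonist 54-4 at its EC80 concentration; % is scaled to controls: 0 for no effect and ±100 for the full control effect; compound concentration not given in the record; the text of the record puts the active cut at -80%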
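Calcium fluorescence in TRPML1-DL cells induced overnight with Tet: a 110 s read after compound pin addition, then a 110 s antagonist read after challenge with 54-4 at 4 uM final (EC80).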
CtBP-E1A blk = CtBP/E1A binding inhibition. AlphaScreen GST-E1A/His-CtBP binding, 1536-well; stronger effect = lower value; control for the full effect not named in the record. activity change, % (test concentration not listed). hit rate 0.49% among 340,000; in the data active means activity change below about -65%; inconclusive means about -30% to -65%; inactive means above about -30%; also: % is scaled to controls: 0 for no effect and ±100 for the full control effect; compound concentration not given in the record
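Homogeneous bead-based format: GST-tagged E1A captured on glutathione donor beads, His-tagged CtBP on nickel acceptor beads; compounds precede bead addition by 2 h at 37 °C.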
Six1-Eya2 blk = Six1/Eya2 interaction inhibition; Q15475+O00167; AlphaScreen GST-Six1/His-Eya2 binding, biochemical; stronger effect = lower value; control for the full effect not named in the record; activity change, % (test concentration not listed); hit rate 0.56% among 360,000; AID 651725; in the data active = activity change below about -65%; inconclusive = about -30% to -65%; inactive = above about -30%; also: % is scaled to controls: 0 for no effect and ±100 for the full control effect; compound concentration not given in the record
Target sequence (O00167 whole entry, looked up): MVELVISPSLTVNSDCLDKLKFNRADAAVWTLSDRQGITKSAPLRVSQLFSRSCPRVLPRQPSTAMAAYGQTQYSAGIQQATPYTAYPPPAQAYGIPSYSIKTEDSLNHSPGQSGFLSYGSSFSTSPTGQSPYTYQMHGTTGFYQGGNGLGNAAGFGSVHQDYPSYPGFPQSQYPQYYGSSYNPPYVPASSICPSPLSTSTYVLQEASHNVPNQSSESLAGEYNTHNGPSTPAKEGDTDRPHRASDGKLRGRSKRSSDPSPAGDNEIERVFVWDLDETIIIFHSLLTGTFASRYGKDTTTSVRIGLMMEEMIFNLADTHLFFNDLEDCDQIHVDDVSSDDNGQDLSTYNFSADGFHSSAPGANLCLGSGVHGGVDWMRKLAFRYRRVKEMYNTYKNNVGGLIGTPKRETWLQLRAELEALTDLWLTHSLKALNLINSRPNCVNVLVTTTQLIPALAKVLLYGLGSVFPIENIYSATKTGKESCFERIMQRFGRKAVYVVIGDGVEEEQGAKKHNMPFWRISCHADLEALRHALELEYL
Target sequence (Q15475 whole entry, looked up): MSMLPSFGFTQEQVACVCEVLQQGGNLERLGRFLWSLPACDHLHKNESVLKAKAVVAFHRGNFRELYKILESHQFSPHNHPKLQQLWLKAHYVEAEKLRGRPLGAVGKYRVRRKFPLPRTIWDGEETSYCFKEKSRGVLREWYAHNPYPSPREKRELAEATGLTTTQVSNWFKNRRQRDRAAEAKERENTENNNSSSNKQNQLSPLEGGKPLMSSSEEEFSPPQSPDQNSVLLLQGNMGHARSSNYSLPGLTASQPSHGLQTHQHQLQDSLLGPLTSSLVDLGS
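AlphaScreen luminescence read after one hour at 37 °C in darkness. Pin-transferred compounds met GST-Six1 and His-Eya2 protein (5X stock 250 nM/500 nM) plus glutathione donor and Ni-chelate acceptor beads (5X, 50 ug/mL).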
PINK1 expr mod = changes PINK1 expression; PINK1 immunofluorescence, high-content cytometry, 24 h; Potency, µM (highest dose often 76.6 µM), without a hit: top-dose activation (PINK1 increase), hits mostly activators; hit rate 0.2% among 410,000; AID 624263; active = well fitted activation curve with a large enough effect; inconclusive = small, poorly fitted or top-dose-only effect; inactive = flat fitted curve, though single readings scatter; cell line not stated here;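 also: potency is read from the fitted curve at half-maximal effect; % of control where 0% means no effect; nearly all actives have a fitted effect of over 65% in size; a mitochondrial uncoupler was the plate control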
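Fluorescence from anti-PINK1 antibody, together with nuclear and cell stains, was scanned on a laser-scanning cytometer. Before staining, stable-line cells were incubated 24 hours with compounds at 5 concentrations; primary antibody 12 h at 10 degrees C.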
Starred values were filed as active, the others as inactive; u = inconclusive; x = not tested or not shown; [ ] = remark or other dose.

SMILES | TRPML1 agonist | D2 ag | TRPML1 inh | CtBP-E1A blk | Six1-Eya2 blk | PINK1 expr mod
Cc1ccc(N(CC(=O)NCC2CCCO2)C(=O)CCC(=O)Nc2ccccn2)cc1C (stereo unspecified) | -0.7 | -4.7 | 10.4 | 0.4 | 0.2 | 0.7%
O=C(c1cc(-n2cnnc2)ccc1Cl)N1CCN(c2nc(-c3ccccc3)cs2)CC1 | 0.5 | 2.8 | 2.4 | u | -24.1 | 2.4%
Cc1cc(CN2CCN(CC(=O)Nc3cc(Cl)ccc3-n3cncn3)CC2)no1 | -0.3 | 1.7 | -8.7 | -17.9 | -1.8 | 0.6%
CN(C)c1nc(N2CCN(c3ccc(F)cc3)CC2)c(C#N)c(=O)o1 | -0.3 | -2.9 | -2.2 | 16.3 | 9.0 | 1.2%
Cc1cccc(OCC(=O)N(C)CCc2ccccn2)c1 | -0.5 | -4.8 | -7.3 | 3.2 | 0.5 | 4.5%
Cc1cccc(C(=O)N2CCCC(CCC(=O)N3CCN(c4ccccn4)CC3)C2)c1C (stereo unspecified) | -0.6 | 1.1 | -5.1 | 0.0 | 1.4 | 1.2%
Cc1cccc(OCc2nc(C#N)c(N3CCCC3)o2)c1 | -0.6 | -1.8 | -6.1 | u | -16.9 | 1.1%
CCCCCCC(=O)NN1CCN(C)CC1 | 0.0 | -3.2 | -14.2 | -0.7 | 0.3 | 1.3%
Cc1ccc(-n2nc3c(=O)n(C(C)C(=O)O)nc(C)c3c2C)cc1 (stereo unspecified) | -0.2 | x | -3.6 | x | x | -0.7%
CC(=O)C1C(c2ccc([N+](=O)[O-])cc2)c2c(noc2C)CC1(C)O (stereo unspecified) | 0.0 | -2.8 | -4.8 | -0.6 | 10.1 | 2.0%
COC(=O)c1[nH]c2c(c1C)C(=O)CC(c1cccc(OC)c1)C2 (stereo unspecified) | 0.3 | -0.4 | 32.9 | -10.5 | 4.4 | 13.8%
CC(NS(=O)(=O)c1ccc(Br)cc1)C(c1cccs1)N1CCN(C)CC1 (stereo unspecified) | 0.8 | -3.0 | 17.2 | -25.1 | -17.7 | 4.7%
CCCOc1ccc(CNC(=O)CCCN2C(=O)CSc3c2c(C)nn3-c2ccccc2)cc1 | 0.8 | x | -5.0 | x | x | 0.8%
CC1(C)Oc2ccc(C(=O)N3CCCC3)cc2N(CC(=O)NCc2ccccc2)C1=O | 2.1 | -1.0 | -12.5 | 1.0 | 4.9 | -1.1%
COc1ccc(NC(=O)NCCc2ccc(Cl)cc2)cc1OC | 1.2 | -0.9 | -2.4 | x | -4.0 | 1.0%
O=C(Oc1ccccc1[N+](=O)[O-])c1cccnc1 | -0.1 | -5.9 | -7.6 | -12.2 | u | 1.2%
CCOc1ccc(C)cc1S(=O)(=O)n1cnc2ccccc21 | x | 1.2 | x | x | -3.7 | 9.9%
OCC1=C[C@@H](O)C2C=CO[C@@H](O[C@@H]3O[C@H](CO)[C@@H](O)[C@H](O)[C@H]3O)C12 (stereo partly specified) | -0.1 | 1.2 | -1.9 | 1.0 | -6.4 | -0.3%
CCOc1cc(N2CCOCC2)c(OCC)cc1NC(=O)CN1C(=O)NC2(CCCCC2)C1=O | 0.0 | 4.0 | -7.5 | -0.9 | 4.0 | 0.3%
Cc1cccc(C)c1NC(=O)CSc1nnc(NC(=O)c2ccccc2C(=O)O)s1 | 0.9 | -1.4 | -20.7 | 0.0 | 0.3 | -1.3%

An excerpt from above in order of SMILES length, largest number first:
SMILES | TRPML1 agonist | D2 ag | TRPML1 inh | CtBP-E1A blk | Six1-Eya2 blk | PINK1 expr mod
CC1(C)Oc2ccc(C(=O)N3CCCC3)cc2N(CC(=O)NCc2ccccc2)C1=O | 2.1 | -1.0 | -12.5 | 1.0 | 4.9 | -1.1%
COC(=O)c1[nH]c2c(c1C)C(=O)CC(c1cccc(OC)c1)C2 (stereo unspecified) | 0.3 | -0.4 | 32.9 | -10.5 | 4.4 | 13.8%
O=C(Oc1ccccc1[N+](=O)[O-])c1cccnc1 | -0.1 | -5.9 | -7.6 | -12.2 | u | 1.2%

Next results.
SMILES | TRPML1 agonist | D2 ag | TRPML1 inh | CtBP-E1A blk | Six1-Eya2 blk | PINK1 expr mod
Cc1ccc2nc(NC(=O)CSc3nncc(=O)n3N)sc2c1 | 0.5 | -4.9 | -9.2 | -4.5 | 10.1 | 4.6%
CN(Cc1ccccc1)C(=O)Nc1ccc(Cl)cc1 | 2.1 | -4.8 | -18.8 | 1.9 | 3.0 | 0.4%
CCOC(=O)C1=C(C)N(C[C@@H]2CC[C@@H](Cc3ccc(-c4ccccc4)cc3)O2)C(=O)NC1c1ccc(SCc2ccco2)c([N+](=O)[O-])c1 (stereo partly specified) | 0.0 | -0.3 | 13.7 | -1.9 | -10.0 | 0.1%
COc1ccc(-c2nc3ccc([N+](=O)[O-])cc3o2)cc1 | -0.5 | -1.7 | -3.3 | 3.0 | -3.3 | 3.2%
Nc1nonc1C(=O)NCCNC(=O)c1ccc(Cl)cc1 | -0.7 | -4.8 | -10.0 | -3.0 | 10.2 | 0.8%
CC1CCCCN1CCn1c(=S)[nH]c2ncccc2c1=O (stereo unspecified) | -0.8 | -1.1 | -15.8 | 5.0 | 17.8 | -1.3%
O=C(Nc1nc2ccc(F)cc2s1)Oc1ccccc1 | 0.0 | -4.3 | -0.6 | -7.4 | 13.7 | 3.4%
CCOC(=O)c1c(S(=O)(=O)N2CCN(C)CC2)c(C)n(C)c1C | -0.3 | 5.2 | 5.0 | 0.6 | 2.7 | 1.4%
CC(NC(=O)COC(=O)/C(=C/c1cccs1)c1cccs1)c1ccccc1 (stereo unspecified) | 1.4 | -2.9 | 11.0 | x | -3.9 | 26.8%
O=C(c1ccc(Cl)s1)N1CCCC1 | 2.1 | -1.8 | -2.8 | 2.9 | -0.2 | 11.0%[38.3 µM]
CCN(CC)CCCNC(=O)c1oc2ccc3c(c2c1C)C(O)CC(C)(C)O3 (stereo unspecified) | x | -0.5 | x | -1.3 | 2.3 | -1.5%
CCOC(=O)c1nn(-c2cccc(Cl)c2)c2nc(CC(C)C)c(C#N)c(=O)n12 | 2.6 | -5.2 | 1.9 | -2.1 | 3.3 | -1.6%
Cc1ccccc1NC(=O)C1CCCN(S(=O)(=O)c2cnc[nH]2)C1 (stereo unspecified) | -0.7 | -4.7 | 2.5 | -0.5 | -4.1 | 4.4%
Cc1ccccc1OCc1nnc(SCc2cc(=O)c3ccccc3[nH]2)n1C | 2.2 | x | 5.5 | x | x | 2.0%
Cc1ccc(S(=O)(=O)NCCC(=O)NCCSc2ccc(Br)cc2)cc1 | 1.6 | -1.7 | -4.2 | 8.7 | 4.1 | 1.8%
C/C=C/c1cccc(-c2nc(C(=O)N3CCN(C)CC3)cc3c2[C@@H](CCO)N(C(=O)NC(C)C)C3)c1 | -0.1 | x | x | 12.5 | 8.6 | -0.7%
O=C(NCCN1CCOCC1)c1cnn2c1NC(c1cccs1)CC2C(F)(F)F (stereo unspecified) | 1.6 | -5.5 | 4.3 | 9.5 | -3.9 | 0.2%
Cc1ccc(N/N=C(\Cc2nc3ccccc3[nH]2)c2ccccc2)cc1 | 0.0 | -6.8 | 6.7 | -6.4 | -15.8 | 12.0%
COc1cccc(C(=O)OCC(=O)NCC2CCCO2)c1 (stereo unspecified) | -0.6 | -3.6 | 33.9 | -0.2 | 6.2 | -4.7%
CCN(c1ccc(OC)cc1)S(=O)(=O)c1nnc(NC(=O)c2ccc(C)cc2)s1 | 0.7 | -0.9 | 6.8 | x | 0.7 | 3.2%
COc1cc(C2c3cc4c(cc3C3OC(=O)C2C3CO)OCO4)cc(OC)c1OC (stereo unspecified) | -0.3 | -2.3 | -13.7 | 31.4 | -11.4 | 11.9%
O=C(CN1C(=O)NC(Cc2ccccc2)C1=O)Nc1ccc(F)cc1 (stereo unspecified) | -0.3 | 0.6 | -5.9 | 3.2 | 1.8 | 14.9%[38.3 µM]
Cn1c(SCc2ccccn2)nnc1-c1cnccn1 | 0.1 | -1.1 | 9.7 | 0.2 | 2.4 | 1.9%[38.3 µM]
CC(NC(=O)c1ccccc1NS(=O)(=O)c1ccc(CCC(=O)O)cc1)c1ccccc1 (stereo unspecified) | 0.1 | -4.0 | 16.2 | -3.3 | -10.0 | 0.6%
Cc1cccc(NC(=O)Cn2c(=O)c3cccn3c3ccccc32)c1C | 2.6 | x | 12.1 | x | x | 0.2%
O=C(O)C1C=Cc2ccccc2N1C(=O)c1ccccc1 (stereo unspecified) (tested in a mixture with another compound) | 0.6 | -3.0 | 16.7 | -24.0 | 8.5 | -0.7%
COC(=O)C1=C(C)N=c2s/c(=C/c3ccoc3)c(=O)n2C1c1ccccc1 (stereo unspecified) | 6.2 | -5.1 | -3.5 | 1.3 | -1.6 | 13.4%
Cn1c(CO)cnc1SCc1ccccc1 | -0.3 | -1.8 | 11.1 | 1.2 | -0.2 | -1.5%
Nc1ccc2nc(-c3ccc(O)cc3)sc2c1 | 1.1 | x | -12.4 | x | x | -1.2%
COc1ccccc1CNC(=O)COC(=O)c1ccncc1 | 1.5 | -2.5 | 18.0 | -3.1 | 4.6 | 0.9%
O=C(O)CC(C(=O)NCc1ccccc1)C1CCCO1 (stereo unspecified) | 0.9 | 7.3 | -6.6 | 3.0 | 13.5 | -0.6%
COc1ccc(CCNc2nc3c(c(=O)n(C)c(=O)n3C)n2Cc2ccc(F)cc2)cc1OC | -1.0 | x | -25.3 | x | x | 1.0%
CN1CCN(C(=O)C2=C[C@@H](c3ccccc3)C[C@@H](OCCCCO)O2)CC1 | -0.9 | 2.7 | -17.1 | -16.9 | 10.0 | -1.7%
CCOC(=O)c1cccc(NC(=O)/C=C/c2cccc([N+](=O)[O-])c2)c1 | 1.7 | -1.2 | 0.8 | -1.2 | -5.9 | u
CN(C)S(=O)(=O)c1cccc(NC(=O)COC(=O)CCC(=O)c2ccc(F)cc2)c1 | -0.8 | 0.8 | 1.7 | 6.2 | -4.2 | 3.5%
CCc1ccc(CCC(=O)N2CCN(S(=O)(=O)c3ccc(Br)cc3)CC2)cc1 | 2.6 | -3.4 | 23.5 | 0.6 | -2.8 | 0.3%
CC1CCc2c(sc3ncnc(N4CCOCC4)c23)C1 (stereo unspecified) | 0.9 | -2.2 | 11.7 | 0.6 | 1.7 | -4.0%[38.3 µM]
CCC(C(=O)Nc1c(C)cc(C)cc1C)N1CCCCCC1 (stereo unspecified) | -0.6 | 1.9 | -14.4 | x | -24.0 | 0.9%
Cc1ncc([N+](=O)[O-])n1Cc1cccc2ccccc12 | -0.2 | -1.3 | -18.1 | 2.7 | 5.7 | 2.8%
O=C(O)c1ccc2c(c1)nnn2C1CCCCC1 | 0.8 | -3.8 | 7.5 | 4.8 | 4.5 | -1.1%
C[C@H](CO)N1C[C@H](C)[C@@H](CN(C)C(=O)Nc2ccc(C(F)(F)F)cc2)Oc2ccc(NC(=O)NC3CCCCC3)cc2C1=O | -0.2 | -0.1 | 2.4 | 3.5 | 3.1 | 0.9%
COc1ccc(C(=O)Nc2onc3c2CCCC3)cc1 | -1.1 | x | 12.6 | x | x | -1.5%
Cn1cc([N+](=O)[O-])c(C(=O)N/N=C/c2ccc([N+](=O)[O-])cc2)n1 | -0.2 | 7.0 | -11.5 | -6.0 | 0.0 | 2.9%
